A488 fluor: compound autofluorescence in A488 spectral region; compound autofluorescence, A488 spectral region, dye equivalency; active compounds read high; max dye equivalency, M; 0.1% of 59,000 active; active = above 10 nM dye equivalent; inconclusive = 1 to 10 nM; inactive = 1 nM or less; about half of its hits are not listed in these tables;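 also: highest value over a series up to 38 µM; compound alone in buffer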
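Readout is A488 dye-equivalent concentration, calibrated by a per-plate six-point Alexa 488 series. Compounds in 100 mM Tris buffer pH 8.0 were incubated 15 min at room temperature. Plates were imaged using 480 nm excitation/540 nm emission filters.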
Resorufin fluor: compound fluoresces in the resorufin spectral region; Compound fluorescence, resorufin region 547/598 nm, buffer; active compounds read high; AID 588; 0.04% of 59,000 active; max dye-equivalent concentration, M; active = above 10 nM dye equivalent; inconclusive = 1 to 10 nM; inactive = 1 nM or less; a few of its hits are not listed in these tables; also: highest value over a series up to 38 µM
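Compounds in 100 mM Tris, pH 8.0, incubated 15 min at room temperature, then fluorescence read at 547 nm excitation/598 nm emission. Signal converted to dye-equivalent concentration via an on-plate six-point resorufin standard curve, per compound concentration.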
A647 autofl: compound fluoresces in the A647 spectral region; Compound fluorescence, A647 channel (570/671 nm), Tris buffer; max dye-equivalent concentration, M; 59,000 tested, under 10 active; AID 592; active means above 1 µM dye equivalent; inconclusive means 0.1 to 1 µM; inactive means 0.1 µM or less;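 also: values scaled relative to a standard on each plate; highest value over a series up to 38 µM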
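Spectral profiling of library compounds in pH 8.0 Tris: 15 min room-temperature incubation, single ex/em pair (570/671 nm), response normalized to Alexa 647 equivalents.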
TSHR agonist: TSH receptor (human) agonism | P16473 | HEK293-CNG-TSHR cells (CNG channel as cAMP sensor), membrane potential dye, cAMP | Potency, µM (series often up to 57.1 µM), inactives show top-dose activation, most hits filed as activators | 0.48% of 73,000 active; active = well fitted activation curve of enough size with the parental cells flat; inconclusive = any curve in the parental cells; inactive = parental cells flat and receptor cells flat or falling; also: potency is read from the fitted curve at half-maximal effect; % of control where 0% means no effect; weak receptor curves with flat parental cells got no call and are not listed
Target sequence (P16473 whole entry, looked up): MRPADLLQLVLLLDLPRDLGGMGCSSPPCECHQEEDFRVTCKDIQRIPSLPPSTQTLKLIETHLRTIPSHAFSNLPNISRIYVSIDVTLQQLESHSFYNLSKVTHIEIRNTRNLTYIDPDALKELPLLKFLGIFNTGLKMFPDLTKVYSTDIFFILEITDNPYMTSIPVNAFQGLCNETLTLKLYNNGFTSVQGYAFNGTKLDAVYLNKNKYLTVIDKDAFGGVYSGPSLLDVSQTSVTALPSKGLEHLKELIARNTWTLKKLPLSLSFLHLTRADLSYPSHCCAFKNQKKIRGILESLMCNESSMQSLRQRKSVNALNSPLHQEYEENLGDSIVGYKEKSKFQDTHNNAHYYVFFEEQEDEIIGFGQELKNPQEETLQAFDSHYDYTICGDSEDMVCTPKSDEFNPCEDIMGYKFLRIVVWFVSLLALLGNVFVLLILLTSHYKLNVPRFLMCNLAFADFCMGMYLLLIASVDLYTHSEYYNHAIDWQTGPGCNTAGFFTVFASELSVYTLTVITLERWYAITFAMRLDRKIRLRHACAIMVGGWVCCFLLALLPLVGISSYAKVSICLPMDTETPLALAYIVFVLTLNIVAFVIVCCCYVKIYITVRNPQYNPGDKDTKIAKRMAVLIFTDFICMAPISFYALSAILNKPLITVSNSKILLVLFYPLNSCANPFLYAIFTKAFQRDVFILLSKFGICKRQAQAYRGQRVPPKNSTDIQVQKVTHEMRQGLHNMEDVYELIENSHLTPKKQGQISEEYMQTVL
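HEK 293 cells stably expressing TSHR and a cAMP-gated CNG channel; parental CNG-only cells as counterscreen. Cells preloaded 60 min with membrane potential dye plus 100 uM RO 20-1724, then compound 30 min; fluorescence read at 590 nm.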
AID923: qHTS Assay for Allosteric/Competitive Inhibitors of Caspase-1: Spectroscopic Profiling in AFC Spectral Region. compound fluorescence, AFC spectral region (405/520 nm); almost no hit is shown here. 1.1% of 75,000 active. Potency, µM (doses to about 57.5 µM), without a hit: at the top dose fluorescence increase, hits mostly activators. AID 923, 2007; active = well fitted activation curve with a large enough effect; inconclusive = small, poorly fitted or top-dose-only effect;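 also: potency is read from the fitted curve at half-maximal effect; 0% is about no effect; scaled to a free AFC standard on each plate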
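Compound autofluorescence profiled at 405 nm ex/520 nm em during kinetic caspase 1 run (50 nM enzyme, 5 uM Ac-WEHD-AFC, HEPES pH 7.5, 10 mM DTT). Titration up to 57 uM; baseline from regression intercept, normalized to AFC standard curve.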
An asterisk follows results filed as active; [ ] = remark or other dose. An excerpt; count on the stated rates, not on these rows.

For N#Cc1ccsc1NC(=O)CSc1ncn[nH]1 the results were A488 fluor inactive, Resorufin fluor inactive, A647 autofl 2e-08, TSHR agonist 10% and AID923 0.9%.
Screening CC(NS(=O)(=O)c1ccccc1)C(=O)Nc1ccc(S(N)(=O)=O)cc1 (stereo not given) returned A488 fluor inactive, Resorufin fluor inactive, A647 autofl 1e-09, TSHR agonist -5% and AID923 0.7%.
For CCCc1cc(=O)oc2cc(C)c(CN3CCCC3)c(O)c12 the results were A488 fluor inactive, Resorufin fluor inactive, A647 autofl 1e-09 and AID923 -0.5%.
`CC1(C)CC(=O)C2=C(C1)NC(=O)CC2c1ccc(N(CCC#N)CCC#N)cc1` (stereo not given) gave TSHR agonist 4% and AID923 0.6%.
CCN(C(=O)CN1CCN(c2ccc(OC)cc2)CC1)c1c(N)n(Cc2ccccc2)c(=O)[nH]c1=O was read as A488 fluor inactive, Resorufin fluor inactive, A647 autofl 4.4e-08, TSHR agonist 15% and AID923 -0.8%.
For CC1=C(C(=O)OCc2ccccc2)C(c2ccc3ccccc3c2)NC(=O)N1CCCCCC(=O)O (stereo not given) the results were TSHR agonist inconclusive and AID923 -1.8%.
Screening COc1ccc(-n2c(Cc3cccn3C)nnc2SCC(=O)NC2CCCCC2)cc1 returned TSHR agonist 0% and AID923 -0.5%.
For Nc1cc(Br)c(N)c(Br)c1 the results were A488 fluor inactive, Resorufin fluor inactive, A647 autofl 1e-09, TSHR agonist -4% and AID923 -1.3%.
CC(C)CC(=O)N1CCN(S(C)(=O)=O)CC1 was read as TSHR agonist 2% and AID923 3.5%.
O=C1OCCC1Sc1nc2ccccc2s1 (stereo not given) was read as A488 fluor inactive, Resorufin fluor inactive, A647 autofl 1.4e-08, TSHR agonist 12% and AID923 -3.2%.
`Cc1ccc(C)c(-c2nc3cc(N)ccc3o2)c1` gave A488 fluor inactive, Resorufin fluor inactive, A647 autofl 1e-09, TSHR agonist -4% and AID923 4.2%.
`CCOCCCNC(=O)c1cn(C)c2ccc(S(=O)(=O)N(C)C3CCCCC3)cc2c1=O` gave TSHR agonist -6% and AID923 0.0%.

Next part; the last 5 above are carried over.
For Nc1cc(Br)c(N)c(Br)c1 the results were A488 fluor inactive, Resorufin fluor inactive, A647 autofl 1e-09, TSHR agonist -4% and AID923 -1.3%.
CC(C)CC(=O)N1CCN(S(C)(=O)=O)CC1 was read as TSHR agonist 2% and AID923 3.5%.
O=C1OCCC1Sc1nc2ccccc2s1 (stereo not given) was read as A488 fluor inactive, Resorufin fluor inactive, A647 autofl 1.4e-08, TSHR agonist 12% and AID923 -3.2%.
`Cc1ccc(C)c(-c2nc3cc(N)ccc3o2)c1` gave A488 fluor inactive, Resorufin fluor inactive, A647 autofl 1e-09, TSHR agonist -4% and AID923 4.2%.
`CCOCCCNC(=O)c1cn(C)c2ccc(S(=O)(=O)N(C)C3CCCCC3)cc2c1=O` gave TSHR agonist -6% and AID923 0.0%.
Screening CC(=O)Oc1ccc(N2C(=O)CC(N3CCOCC3)C2=O)cc1 (stereo not given) returned TSHR agonist -2%[11.4 µM] and AID923 0.0%.
For CC(=O)Nc1nc2ccc(Br)cc2s1 the results were A488 fluor inactive, Resorufin fluor inactive, A647 autofl 4.2e-09, TSHR agonist -6% and AID923 -2.2%.
Screening O=C(NCCc1ccccc1)c1cc(-c2ccco2)on1 returned A488 fluor inactive, Resorufin fluor inactive, A647 autofl 7.9e-09, TSHR agonist 8% and AID923 1.2%.
Screening Cn1cccc1-c1nc2ccccc2n1Cc1ccccc1 returned A488 fluor inactive, Resorufin fluor inactive, A647 autofl 1.8e-08, TSHR agonist inconclusive and AID923 0.1%.
CC(C)=CCC(C)(C)C1OCCN1C(=O)Nc1ccccc1 (stereo not given) was read as A488 fluor inactive, Resorufin fluor inactive, A647 autofl 1e-09, TSHR agonist 10µM* and AID923 1.1%.
For NC(=S)SCCC(=O)O the results were A488 fluor inactive, Resorufin fluor inactive, A647 autofl 2.6e-08, TSHR agonist 4%[11.4 µM] and AID923 1.6%[11.5 µM].
Screening Brc1ccc2[nH]c3nc(SCCN4CCOCC4)nnc3c2c1 returned A488 fluor inactive, Resorufin fluor inactive, A647 autofl 1e-09, TSHR agonist -2%[11.4 µM] and AID923 -1.2%.
For Cc1ccc(-c2noc(CN(C(=O)CCCCCN3C(=O)c4ccccc4C3=O)C(C)C)n2)cc1 the results were A488 fluor inactive, Resorufin fluor inactive, A647 autofl 3.7e-08, TSHR agonist 26% and AID923 2.1%.
CCOc1cc(-c2cc(N)n[nH]2)cc(OCC)c1OCC was read as TSHR agonist -6% and AID923 -1.6%.
For COC(=O)c1cccc(NC(=O)CSc2nnc(C)n2Cc2ccccc2)c1 the results were A488 fluor inactive, Resorufin fluor inactive, A647 autofl 4e-08, TSHR agonist 7% and AID923 -1.0%.
For O=c1[nH]c(C(F)(F)F)nc2c1nnn2Cc1ccccc1F the results were A488 fluor inactive, Resorufin fluor inactive, A647 autofl 2.1e-08, TSHR agonist inconclusive and AID923 0.6%.
`COc1cccc(OCCOc2cccc(/C=N/n3cnnc3)c2)c1` gave TSHR agonist 4% and AID923 1.0%.
`CC(C)OC(=O)c1nnn(-c2nonc2N)c1CN1CCCCCC1` gave A488 fluor inactive, Resorufin fluor inactive, A647 autofl 3e-08, TSHR agonist 7% and AID923 0.1%.
Nc1ccc(-c2ccc(N)cc2C(F)(F)F)c(C(F)(F)F)c1 was read as A488 fluor inactive, Resorufin fluor inactive, A647 autofl 5.2e-08 and AID923 0.5%.
Screening O=C(CN1C2=NCCCN2c2ccccc21)c1cccs1 returned TSHR agonist 25% and AID923 2.1%.
`COc1ccccc1N(C(=O)Cn1nnc2ccccc21)C(C(=O)NCc1ccco1)c1ccc(C)o1` (stereo not given) gave A488 fluor inactive, Resorufin fluor inactive, A647 autofl 3.9e-08, TSHR agonist inconclusive and AID923 0.2%.
`CN(CC(=O)O)Cc1c(O)c(Cl)cc(Cl)c1Cl` gave A488 fluor inactive, Resorufin fluor inactive, A647 autofl 1e-09, TSHR agonist 1%[11.4 µM] and AID923 4.8%[11.5 µM].
Cc1cc(C(=O)NC2CCCc3ccccc32)no1 (stereo not given) was read as TSHR agonist inconclusive and AID923 0.9%.
CCOC(=O)C(C)c1nc2ccccc2[nH]c1=O (stereo not given) was read as A488 fluor inactive, Resorufin fluor inactive and A647 autofl 1e-09.
For CCCCN1C(=O)C2ON(c3ccccc3C)C(c3ccco3)C2C1=O (stereo not given) the results were TSHR agonist inconclusive and AID923 1.7%.
Screening COC(=O)c1cc(Br)c(=O)n(CCc2ccccc2)c1 returned A488 fluor inactive, Resorufin fluor inactive, A647 autofl 1e-09, TSHR agonist 14% and AID923 0.5%.
For COC(=O)c1ccccc1NC(=O)c1cc2ncc(Br)cn2n1 the results were A488 fluor inactive, Resorufin fluor inactive, A647 autofl 3.4e-09, TSHR agonist 10% and AID923 0.2%.
`O=C1CCC=C1[C@@H](O)CCc1ccccc1` gave TSHR agonist -1%[11.4 µM] and AID923 -0.3%[11.5 µM].
For Cc1nc2ccccc2nc1N1CCCCC1 the results were TSHR agonist 0% and AID923 -0.4%.
O=C(Nc1ccc(S(=O)(=O)N2CCCc3ccccc32)cc1)C1CCCO1 (stereo not given) was read as A488 fluor inactive, Resorufin fluor inactive, A647 autofl 1.4e-08, TSHR agonist 12% and AID923 0.4%.
`CCN=C1SC(CC(=O)Nc2ccc(C)cc2)C(=O)N1CC` (stereo not given) gave A488 fluor inactive, Resorufin fluor inactive, A647 autofl 5.6e-08, TSHR agonist -7% and AID923 -1.3%.
Screening CN(C(=O)c1cccnc1)c1nnc(-c2cnccn2)s1 returned A488 fluor inactive, Resorufin fluor inactive, A647 autofl 4.2e-08, TSHR agonist -1% and AID923 -0.6%.
`Cc1ccc(S(=O)(=O)c2nc(N3CCOCC3)sc2Cl)cc1` gave A488 fluor inactive, Resorufin fluor inactive, A647 autofl 3.4e-08, TSHR agonist 0% and AID923 -2.0%.
`C[C@H](N)[C@H](O)c1cccc(O)c1` gave A488 fluor inactive, Resorufin fluor inactive, A647 autofl 6.9e-09, TSHR agonist -6%[25.6 µM] and AID923 0.0%[25.7 µM].
CS(=O)(=O)N1CCN(c2nc(-c3ccc(F)cc3)cs2)CC1 was read as TSHR agonist 3% and AID923 -0.6%.
For CC(C)Oc1cccc(C(=O)O)c1 the results were A488 fluor inactive, Resorufin fluor inactive, A647 autofl 2.1e-08, TSHR agonist 18% and AID923 1.0%.
For Cc1ccccc1N=C1Nc2ccccc2CS1 the results were A488 fluor inactive, Resorufin fluor inactive, A647 autofl 9.2e-09, TSHR agonist 29% and AID923 -2.8%.
For Cc1ccccc1-n1c(=O)cc(N2CCc3ccccc3C2)[nH]c1=O the results were A488 fluor inactive, Resorufin fluor inactive, A647 autofl 1e-09, TSHR agonist -1% and AID923 3.0%.
For Cc1c(O)c(=O)n(-c2ccccc2)n1C the results were A488 fluor inactive, Resorufin fluor inactive, A647 autofl 4.3e-08, TSHR agonist -10%[25.6 µM] and AID923 -1.2%[25.7 µM].
Screening CC(C)CC(=O)Nc1ccccc1-c1nnn(CC(=O)N2CCOCC2)n1 returned A488 fluor inactive, Resorufin fluor inactive, A647 autofl 2.5e-08, TSHR agonist 5% and AID923 0.5%.
`NC(=O)CN1CCN(C(=O)Nc2ccccc2)CC1` gave TSHR agonist 5% and AID923 -0.2%.
NC(=O)c1c(NC(NC(=O)c2ccco2)(C(F)(F)F)C(F)(F)F)sc2c1CCCC2 was read as A488 fluor inactive, Resorufin fluor inactive, A647 autofl 1e-09, TSHR agonist 18% and AID923 3.5%.
`Cc1noc(C)c1COC(=O)c1ccccc1Sc1ccccc1C#N` gave A488 fluor inactive, Resorufin fluor inactive, A647 autofl 1.9e-08, TSHR agonist inconclusive and AID923 3.3%.
`Cn1c(=O)c(-c2ccc(Cl)cc2)nc2cncnc21` gave A488 fluor inactive, Resorufin fluor inactive, A647 autofl 3.4e-08, TSHR agonist inconclusive and AID923 3.1%.
`CCS(=O)(=O)CCSc1nc2ccccc2s1` gave A488 fluor inactive, Resorufin fluor inactive, A647 autofl 2.3e-08, TSHR agonist -2% and AID923 1.2%.
CCCOc1cccc(C2/C(=C(/O)c3ccc(F)cc3)C(=O)C(=O)N2CCN(C)C)c1 (stereo not given) was read as A488 fluor inactive, Resorufin fluor inactive and A647 autofl 4.7e-08.
For c1cc(-c2nnc3n2CCCCC3)ccn1 the results were A488 fluor inactive, Resorufin fluor inactive, A647 autofl 4.5e-09, TSHR agonist 1% and AID923 -0.5%.
Screening CC(C)CNC(=O)CSc1nnc(-c2ccccn2)n1Cc1ccccc1 returned A488 fluor inactive, Resorufin fluor inactive, A647 autofl 5.8e-08, TSHR agonist 13% and AID923 0.6%.
CCC(=O)Oc1cccc(C(=O)Nc2ccc(-c3nnc(-c4ccco4)o3)cc2)c1 was read as TSHR agonist -14% and AID923 8.9%.
`Nc1ccc(SCCN2C(=O)c3ccccc3C2=O)cc1` gave A488 fluor inactive, Resorufin fluor inactive, A647 autofl 2.8e-09, TSHR agonist -3% and AID923 -1.2%.
Screening CCCCNC(=O)c1sc2nc(C)cc(COC)c2c1-n1cccc1 returned A488 fluor inactive, Resorufin fluor inactive, A647 autofl 1.4e-08, TSHR agonist inconclusive and AID923 0.9%.
Screening Cc1ccc(C)n1-n1cnc2sc3c(c2c1=O)CCC3 returned A488 fluor inactive, Resorufin fluor inactive, A647 autofl 8.9e-09, TSHR agonist -1% and AID923 -0.6%.
`Cc1c(C(=O)N2CCN(CCc3ccccc3)CC2)oc2ccccc12` gave TSHR agonist 8% and AID923 -0.3%.

From PubChem BioAssay
